High-throughput results (PubChem)
ClpP mod: qHTS Assay for Activators of ClpP | purified B. subtilis ClpP, FRET peptide cleavage, 20 min | actives 1.9% (n = 340,000) | AID 651965, 2013 | ATP-dependent Clp protease proteolytic subunit (Bacillus subtilis (strain 168)), P80244 | Potency, µM (doses to about 57.5 µM), inactives show top-dose activity change, negative = active; active = well fitted falling curve with a large enough effect; inconclusive = small, poorly fitted or top-dose-only effect; inactive = no such curve, though single readings can be large or run the other way; also: the source files actives as falling curves though it sought activators and does not explain the sign; nearly all actives have a fitted effect of over 65% in size; many hits overshoot -100%
Target sequence (P80244 whole entry, looked up): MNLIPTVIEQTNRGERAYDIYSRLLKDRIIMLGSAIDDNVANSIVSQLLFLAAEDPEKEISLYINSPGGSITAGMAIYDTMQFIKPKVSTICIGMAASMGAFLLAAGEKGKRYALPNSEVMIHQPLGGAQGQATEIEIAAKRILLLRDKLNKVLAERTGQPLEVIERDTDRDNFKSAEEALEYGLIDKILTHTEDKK
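Purified B. subtilis ClpP, 10 microg/mL final in Tris/HCl pH8 with KCl, BSA, glycerol and Tween-20, cleaved an Abz/nitrotyrosine-quenched decapeptide. Fluorescence (ex 320, em 430) was read at 0 and 20 min at room temperature. Delta was normalized to 5.8 microM ADEP and DMSO/no-enzyme controls.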
* hit, by the source's call. Potency is read from the fitted curve at half-maximal effect. Some of the compounds tested; rates above refer to the full screens.

`Cc1ccc(Oc2c(C(F)(F)F)oc3c(CN4CCC(C)CC4)c(O)ccc3c2=O)cc1` gave ClpP mod -0.1%.
Cc1ccc(CSc2oc(-c3cccs3)nc2S(=O)(=O)c2ccc(C)cc2)cc1 was read as ClpP mod -13.1%.
For Cc1cccc(NC(=O)C2CCN(S(=O)(=O)c3ccc4c(c3)CCCC(=O)N4)CC2)c1 the results were ClpP mod 0.6%.
Screening CCn1c(=N)n(CCOc2ccc(Br)cc2)c2ccccc21 returned ClpP mod 0.0%.
For COc1ccccc1CNC(=O)c1cnc2sc(N3CCCCC3)nn2c1=O the results were ClpP mod 3.9%.
`CCCCN(Cc1ccccc1)S(=O)(=O)c1ccc2c(c1)CCN2C(=O)C1CCC1` gave ClpP mod 0.0%.
`O=C(CCc1cn(Cc2ccc(F)cc2)c2ccccc12)NCCc1ccc(Cl)cc1` gave ClpP mod -20.4%.
For CCn1c(=O)c2sccc2n2c(CCCC(=O)N3CCN(c4ccc(F)cc4)CC3)nnc12 the results were ClpP mod -9.7%.
Screening CCC(=O)N1CCc2cc(Br)cc(S(=O)(=O)N3CCCC(C(=O)Nc4ccc(OC)c(Cl)c4)C3)c21 (centres undefined) returned ClpP mod 1.8%.
`CCOC(=O)c1c(S(=O)(=O)N2CCCC(C(=O)Nc3cc(C)ccn3)C2)c(C)n(C)c1C` (centres undefined) gave ClpP mod 0.4%.
Screening Cc1ccc(-c2nc3c(c(SCC(=O)Nc4ccccc4Cl)n2)Cc2c(CO)cnc(C)c2O3)cc1 returned ClpP mod -0.7%.
C(=C\c1ccnc2ccccc12)/c1cc2c3c(c1)CCCN3CCC2 was read as ClpP mod -0.4%.
For CC(C)C[C@H]1COc2cccc(N(C)CCO)c2S(=O)(=O)N1 the results were ClpP mod -4.5%.
`O=C(CCNS(=O)(=O)c1ccc2c(c1)CCN2C(=O)C1CC1)Nc1ccc(F)cc1F` gave ClpP mod 0.3%.
`CC(CNC(=O)c1ccc2c(c1)nc1n2CCCCC1)c1ccccc1` (centres undefined) gave ClpP mod -0.8%.

Two entries drawn at random from the list so far, as already listed:
`CCCCN(Cc1ccccc1)S(=O)(=O)c1ccc2c(c1)CCN2C(=O)C1CCC1` gave ClpP mod 0.0%.
Screening Cc1ccc(-c2nc3c(c(SCC(=O)Nc4ccccc4Cl)n2)Cc2c(CO)cnc(C)c2O3)cc1 returned ClpP mod -0.7%.

Next records.
Cc1ccc(Nc2nc3ccccc3c3nncn23)c(Cl)c1 was read as ClpP mod -1.1%.
`COc1cccc(C(=O)CN2CCN(S(=O)(=O)c3ccc(Cl)cc3)CC2)c1` gave ClpP mod -1.0%.
Screening CC(C)(C)C(=O)c1c(N)[nH]c(C(=O)c2ccccc2)c1-c1ccc(Cl)cc1 returned ClpP mod 3.0%.
Screening Cc1ccc(-c2nn(CC(=O)Nc3cccc(C(F)(F)F)c3)c(=O)c3ccccc23)cc1 returned ClpP mod inconclusive.
For COc1ccc(-c2nc3ccccc3o2)cc1NC(=O)c1ccc(-c2ccc(C)c(Cl)c2)o1 the results were ClpP mod -17.3%.
`CCOc1ccc(C(=O)c2cnc3ccc(Cl)cc3c2S(=O)(=O)c2ccc(C)cc2)cc1` gave ClpP mod 0.4%.
`CSc1cccc(NC(=O)c2cnn(-c3ccc(F)cc3)c2-n2cccc2)c1` gave ClpP mod inconclusive.
Screening COc1ccc(OC)c(CCNC(=O)c2cc3cccc4c3n2CCS4)c1 returned ClpP mod 31.6µM*.
`CCOC(=O)N1CCc2c(sc3c2c(=O)n(-c2ccc(CC)cc2)c(=O)n3CC(=O)Nc2ccc(C)cc2)C1` gave ClpP mod -1.9%.
Screening COc1ccc(CNC(=O)c2ccc3c(c2)nc2n3CCC(C)C2)c(OC)c1 (centres undefined) returned ClpP mod -3.6%.
`COc1ccc(CNC(=O)CN2C(=O)CSc3ccc(S(=O)(=O)N4CCCC4)cc32)cc1` gave ClpP mod 0.1%.
For COc1cc(OC)c(/C=C/c2ccc3ccccc3n2)c(OC)c1 the results were ClpP mod -1.3%.
Screening CCN(CC)S(=O)(=O)c1ccc2c(c1)nc(CN(C)C(=O)Nc1ccc(Cl)cc1)n2C returned ClpP mod -0.9%.
Screening Cc1cccc(CNC(=O)c2sc3ncnc(N(C)C4CCCCC4)c3c2C)c1 returned ClpP mod inconclusive.
Screening COC(=O)[C@]12CCCCC=C1N(CCC1=CCCCC1)C(=O)[C@H](CC(=O)NCc1cccc3ccccc13)C2 returned ClpP mod -5.2%.

Ordered by count of non-hydrogen atoms (ascending): some entries from above.
Cc1ccc(Nc2nc3ccccc3c3nncn23)c(Cl)c1 was read as ClpP mod -1.1%.
For COc1cc(OC)c(/C=C/c2ccc3ccccc3n2)c(OC)c1 the results were ClpP mod -1.3%.
`CC(CNC(=O)c1ccc2c(c1)nc1n2CCCCC1)c1ccccc1` (centres undefined) gave ClpP mod -0.8%.
Screening COc1ccc(OC)c(CCNC(=O)c2cc3cccc4c3n2CCS4)c1 returned ClpP mod 31.6µM*.
Screening COc1ccc(CNC(=O)c2ccc3c(c2)nc2n3CCC(C)C2)c(OC)c1 (centres undefined) returned ClpP mod -3.6%.
Screening Cc1cccc(CNC(=O)c2sc3ncnc(N(C)C4CCCCC4)c3c2C)c1 returned ClpP mod inconclusive.
Screening CCN(CC)S(=O)(=O)c1ccc2c(c1)nc(CN(C)C(=O)Nc1ccc(Cl)cc1)n2C returned ClpP mod -0.9%.
`COc1ccc(CNC(=O)CN2C(=O)CSc3ccc(S(=O)(=O)N4CCCC4)cc32)cc1` gave ClpP mod 0.1%.
For COc1ccc(-c2nc3ccccc3o2)cc1NC(=O)c1ccc(-c2ccc(C)c(Cl)c2)o1 the results were ClpP mod -17.3%.
`CCOC(=O)N1CCc2c(sc3c2c(=O)n(-c2ccc(CC)cc2)c(=O)n3CC(=O)Nc2ccc(C)cc2)C1` gave ClpP mod -1.9%.

Remaining list, next part.
Screening CCc1ccc(Nc2sc(C(=O)c3ccc(F)cc3)c(N)c2S(=O)(=O)c2ccccc2)cc1 returned ClpP mod -7.6%.
O=C(Nc1ccc2nc(SCCOc3ccccc3Cl)sc2c1)c1ccco1 was read as ClpP mod inconclusive.
For Cc1ccc(OCC(=O)NCC(=O)OCc2cc(=O)n3nc(C(C)C)sc3n2)cc1 the results were ClpP mod -5.7%.
`CCOC(=O)c1ccc(NC(=O)CCc2c(C)n(CC)c3cc(-c4ccccc4OC)nn3c2=O)cc1` gave ClpP mod 3.6%.
For Cc1c(CC(=O)NCCc2ccccc2F)c(=O)oc2c(C)c3occ(C(C)(C)C)c3cc12 the results were ClpP mod inconclusive.
`Cc1ccc(-c2nnc(Nc3ccc(C(=O)N(C)C)cc3)c3ccccc23)cc1S(=O)(=O)N(C)C` gave ClpP mod -1.5%.
`Cc1cc2c(cc1C)NC(CC(=O)Nc1ccccc1SC(F)(F)F)C(=O)N2` (centres undefined) gave ClpP mod -9.1%.
COc1cc(/C=C(\C#N)c2nc3ccccc3[nH]2)cc(Cl)c1OCc1ccccc1Cl was read as ClpP mod inconclusive.
For CCc1cccc(NC(=O)c2cc3c(s2)-c2ccccc2OC3)c1 the results were ClpP mod 3.6%.
COc1ccc(C(=O)Nc2ccc(-c3nc4ccccc4s3)cc2C)cc1Cl was read as ClpP mod -27.3%.
Screening Cc1ccc(OCCCCn2c(CCNC(=O)C3CCCCC3)nc3ccccc32)cc1 returned ClpP mod -2.9%.
COc1ccc(CNC(=O)C(Cc2ccccc2)NS(=O)(=O)c2ccc3c(c2)CCN3C(C)=O)cc1 (centres undefined) was read as ClpP mod -3.4%.
C#CCNC(=O)C[C@@H]1C[C@@]2(C(=O)OC)CCCCC=C2N(Cc2ccc3c(c2)OCO3)C1=O was read as ClpP mod -0.1%.
`Cc1nc(-c2cccc(S(=O)(=O)N3CCC(C(=O)NCc4ccccc4Cl)CC3)c2)no1` gave ClpP mod -0.7%.
`COc1ccc(C(=O)Nc2nc3c(s2)CCCC3)cc1Cl` gave ClpP mod -13.7%.
COc1ccccc1CNc1ccc(-c2nc(-c3cccc(C)c3)no2)cc1[N+](=O)[O-] was read as ClpP mod 2.0%.
For CCOc1ccc(NC(=O)C(CC)n2nc(-c3ccc(C)c(C)c3)ccc2=O)cc1 (centres undefined) the results were ClpP mod -9.7%.
Screening COc1ccc(S(=O)(=O)N2CCC[C@H]2C(=O)N2CCC[C@H]2C(=O)N[C@@H](C)c2ccccc2)cc1C returned ClpP mod 1.8%.
`COc1cc(OC)c(OC)cc1/C=C/c1ccc2ccccc2n1` gave ClpP mod -18.3%.
Cc1cccc(C(=O)N2CCc3cc(CNS(=O)(=O)c4ccc(F)c(Cl)c4)ccc32)c1 was read as ClpP mod 4.5%.
Screening CN(C(=O)c1cc2c(s1)-c1ccc(Cl)cc1SC2)c1cccc(C(F)(F)F)c1 returned ClpP mod -27.6%.
Screening Cc1ccc(C)n1-c1nnc(N2CCCC(C(=O)NCc3ccc(Cl)cc3)C2)s1 (centres undefined) returned ClpP mod -7.2%.
`Cc1ccc(-c2nc(CS(=O)CC(=O)O)c(C)o2)cc1` (centres undefined) gave ClpP mod -0.4%.
`COc1ccc(C(=O)Nc2ccc3oc(-c4ccc5ccccc5c4)nc3c2)cc1Br` gave ClpP mod 4.8%.
Screening CCC(Sc1nnc2c3ccccc3n(CC)c2n1)C(=O)Nc1nnc(C(C)C)s1 (centres undefined) returned ClpP mod 0.2%.
COc1cccc(C2=NS(=O)(=O)N(C)C(C(=O)Nc3cccc(O)c3)=C2)c1 was read as ClpP mod -0.4%.
Cn1c(SCC(=O)N2CCOCC2)ncc(C(=O)Nc2ccc(F)cc2)c1=O was read as ClpP mod 1.2%.
Screening CC(C)c1cnc2c(c1SCC(=O)NCc1ccccc1Cl)c(=O)n(C)c(=O)n2C returned ClpP mod -0.5%.
Screening CCOc1ccc(CCNC(=O)c2cc3cc4cc(OC)ccc4nc3s2)cc1OCC returned ClpP mod 21.4%.
For COc1ccc(NC(=O)NC2COc3ccccc3C2)c(OC)c1 (centres undefined) the results were ClpP mod 0.9%.
`Cc1cc(NC(=O)N(C)CCc2c(C)nn(C)c2C)ccc1Br` gave ClpP mod -5.4%.
Screening COc1ccc(NC(=O)c2cc3nc(-c4ccc(C)c(C)c4)cc(C(F)(F)F)n3n2)cc1 returned ClpP mod -0.9%.
`CC(C)C[C@@H]1Cc2[nH]c(=S)[nH]c(=O)c2[C@H](C)O1` gave ClpP mod -0.3%.
Cc1ccc(-c2cn3c(n2)sc2cc(C(=O)NCc4cccs4)ccc23)cc1 was read as ClpP mod 7.08µM*.
CC1(c2nnnn2-c2ccc3c(c2)OCCO3)CCC(=O)N1CCc1ccccc1F (centres undefined) was read as ClpP mod -1.5%.
Screening CN(C)CCN1CCN(C2CN(Cc3cn(Cc4cccc(Cl)c4)nn3)S(=O)(=O)C2)CC1 (centres undefined) returned ClpP mod -0.5%.
`CCOC(=O)c1c(-c2ccc(C)cc2)csc1NC(=O)c1nc(SC(C)C)ncc1Cl` gave ClpP mod -0.1%.
`CCc1ccc(N2C(=O)CS(=O)(=O)C23C(=O)N(Cc2ccccc2)c2ccccc23)cc1` (centres undefined) gave ClpP mod -1.8%.
`CCCCCCSc1ccc(-c2nc3cnccn3c2NC2CCCCC2)cc1` gave ClpP mod 5.0%.
`CCCN(CCC)CCCNC(=O)c1cc2c(=O)oc3ccc(C)cc3c2s1` gave ClpP mod -14.8%.
`Cc1ccc(-n2nc3c(N4CCC(C(=O)NCc5ccccc5Cl)CC4)nnc(C)c3c2C)cc1` gave ClpP mod -1.5%.
`Cc1ccc(CNC(=O)C(=O)Nc2c3c(nn2-c2ccccc2)CSC3)cc1` gave ClpP mod -0.1%.
Screening Oc1c(C(c2ccccc2Cl)N2CCN(Cc3ccccc3)CC2)sc2nc(-c3ccco3)nn12 (centres undefined) returned ClpP mod -1.6%.
For Cc1ccccc1NC(=O)c1sc2nc(-c3cc4ccccc4oc3=O)[nH]c(=O)c2c1C the results were ClpP mod 0.5%.
For O=C1Nc2c(c(=O)[nH]c(=O)n2-c2ccc(F)cc2)C1(NS(=O)(=O)c1ccc(Cl)cc1)C(F)(F)F (centres undefined) the results were ClpP mod -11.1%.
Screening Fc1ccc(-n2ncc3c(N4CCN(Cc5ccccc5)CC4)ncnc32)cc1 returned ClpP mod -3.2%.
Screening Cc1ccccc1CN1[C@H](C)[C@H](c2ccccc2)OCCS1(=O)=O returned ClpP mod 0.5%.
Screening COc1ccc(CCNC(=O)c2nc(SCc3ccccc3F)ncc2Cl)cc1OC returned ClpP mod -4.3%.
For CCCn1c2ccccc2c2cnn(CC(=O)NCCc3ccc(C)cc3)c(=O)c21 the results were ClpP mod inconclusive.
For COc1cccc(CNCCCSc2nnnn2C)c1OC the results were ClpP mod 0.0%.
`Cc1cccc(C(=O)Oc2c(Sc3ccccc3)c(C)nn2C(C)(C)C)c1` gave ClpP mod -2.1%.
For CC1(c2nnnn2-c2ccc3c(c2)OCCO3)CCC(=O)N1CCc1c[nH]c2ccccc12 (centres undefined) the results were ClpP mod 0.9%.
CCC(CC)C(=O)Nc1nnc(SCc2cc(=O)n3cccc(C)c3n2)s1 was read as ClpP mod -12.9%.
For O=C(NCc1cccc(Cl)c1)NCc1noc2ccccc12 the results were ClpP mod 4.0%.
For Cc1ccc2nc(NS(=O)(=O)c3ccc(Cl)cc3)c(Nc3ccc(C(=O)O)cc3)nc2c1 the results were ClpP mod -15.2%.
`CCOc1ccc(C(=O)Nc2nnc(S(=O)(=O)N(CC)c3ccccc3C)s2)cc1` gave ClpP mod -2.3%.
`COc1ccc([C@H]2CC(=O)C[C@@H](CCn3cc(C)nn3)O2)cc1` gave ClpP mod 2.4%.
Cc1ccccc1CSCCNC(=O)C1CCN(S(=O)(=O)Cc2ccccc2)CC1 was read as ClpP mod -2.9%.
